NPYLR7 agonist: mosquito NPYLR7 agonism; HEK293T NPYLR7/Galpha15, GCaMP6s calcium fluorescence; 270,000 tested, 0.15% active; activation, % at 10 µM; AID 1259423; in the data active = activation above about 40%;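 note: 0% = vehicle and 100% = reference agonist at the receptor; some compounds past the cut are filed as inactive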
NPYLR7 agonist max-min: recorded beside NPYLR7 agonist, whose call it bears; activation, %; measured here: Max-Min RFU normalised activation; some inactives read as strong as hits;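 span of the calcium signal over five minutes; 0% = vehicle and 100% = native peptide agonist; compound fluorescence can raise it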
Active calls of the source: *. The list is partial. The share of hits here may be higher or lower than overall.

SMILES	NPYLR7 agonist	NPYLR7 agonist max-min
Cn1c(=S)[nH]c2ccccc21	-3	-11
COc1cc(C(O)CO)ccc1OS(=O)(=O)O (stereo not drawn)	-4	-17
Cc1ccn2c(=O)c(NC(=O)CCC3CCCCC3)c(C)nc2c1	3	1
Cc1cc(NC(=O)c2csc3c2CCCC3)ccc1N1CCCC1=O	0	1
O=c1c(Cl)c(Cl)cnn1CNC1(c2ccc(F)cc2)CCCC1	3	-1
CC1(C)C2CC=C(COCC(O)CNCc3ccccn3)C1C2 (stereo not drawn)	6	0
O=C(c1ccccc1OCc1cccnc1)N1CCC(Cc2ccccn2)CC1	-7	5
COc1cccc(C(=O)N2CC(=O)N(Cc3ccc(C)cc3)CC(O)C2)c1 (stereo not drawn)	-1	1
CN(Cc1ccc2cccc(O)c2n1)Cc1nnc(-c2ccccc2)o1	1	8
CCC(=O)N/N=C(/C)CC(=O)Nc1cccc(I)c1	-1	-3
CC(Cl)C(=O)N1CCN(c2nccc(-c3ccc(N4CCOCC4)cc3)n2)CC1 (stereo not drawn)	36	26
CCc1cccc2c(C3CCN(C(=O)C4CC5CCCC(C4)C5=O)CC3)c[nH]c12 (stereo not drawn)	10	7
CCOC(=O)c1ccc(N2NC(=O)/C(=C/C=C/c3ccco3)C2=O)cc1	5	7
CN(C)C(=O)CNc1ccc(OCc2ccco2)c(Cl)c1	11	0
O=C(Cn1cnc2c(cnn2C2CCS(=O)(=O)C2)c1=O)N1CCN(c2ccccc2)CC1 (stereo not drawn)	-5	-6
CCCOc1ccnc2c1c(=O)n(CCC(C)C)c(=O)n2C	-2	-5
Cc1ccc2c(c1)C1(C(=O)N2)c2c(C)nn(-c3ccccc3)c2OC(=N)C1C#N (stereo not drawn)	-5	-10
COc1ccc(C2c3cccn3CCN2C(=O)Nc2cccs2)cc1 (stereo not drawn)	2	1
Cc1c(C(=O)Nc2cccnc2N2CCCC2)oc2c(F)cccc12	4	2
Cc1cc(NC(=O)CN(C)C(C)c2ncc(-c3ccccc3)o2)no1 (stereo not drawn)	0	24
CC(C)C(=O)Nc1nnc(SCc2cc(F)cc(F)c2)s1	19	10
CC(=O)N(CCCN(C)C)c1nc2c(F)cc(F)cc2s1	7	6
CCC(=O)Nc1ccc(SCc2ccncc2)nn1	4	-4
O=C(NCc1cn2ccccc2n1)c1ccc2ccccc2c1	21	13
CCCN(CCC)Cc1nc2ncccn2c1Br	3	-2
Cc1ccsc1[C@@H]1CCN(C(=O)COc2ccc(F)cc2)C[C@H]1O	4	3
CC1(Cc2ccc(OC(F)(F)F)cc2)C(=O)Nc2ccc(S(=O)(=O)NC3CCCCC3)cc21 (stereo not drawn)	-1	-4
O=S(=O)(c1ccccc1)N(C1=NCCS1)S(=O)(=O)c1ccccc1	-2	-4
CCCc1cc2c(=O)c(-c3ccccn3)coc2cc1OC(C)C(=O)OCC (stereo not drawn)	4	4
CC(C)C(C)N(Cc1ccco1)C(=O)c1cnc2ccccn2c1=O (stereo not drawn)	8	5
CCOc1ccc2nc(S(=O)(=O)NC(=O)C3(C)CCN3C(=O)c3ccccc3)sc2c1 (stereo not drawn)	3	1
Cc1c(Cl)cccc1NC(=O)Cn1nc(-c2ccc(F)cc2)c2sc(N3CCCC3)nc2c1=O	-3	-2
Cc1ccccc1S(=O)(=O)NC(=O)C1(C)CCN1C(=O)c1cccc(F)c1 (stereo not drawn)	1	-2
CCCCc1ncc(CN(C)Cc2cccc3ncccc23)[nH]1	3	2
Fc1ccccc1-c1nnc(SCc2nc3ccccc3o2)o1	1	1
N#Cc1c(SCC(=O)C23CC4CC(CC(C4)C2)C3)sc2c(=O)[nH]c(=O)[nH]c12	1	-6
O=C(NCc1csc2ccccc12)N1CCS(=O)(=O)CC1	-5	-6
Cc1nn(C)c2[nH]c(C(F)(F)F)cc(=O)c12	0	-1
CCN(CC)CC(=O)c1cc(C)n(-c2ccc(S(N)(=O)=O)cc2)c1C	9	6
CCc1nc2ccc(C(=O)NC3CCN(Cc4ccccc4)CC3)cn2c1N(C)CCN1CCOCC1	19	16
Cc1oc(-c2cccc(C(F)(F)F)c2)nc1CN1CCN(C)C(C)C1 (stereo not drawn)	-2	-11
COc1ccc(C(C)N2CCC(n3cncn3)CC2)cc1Cl (stereo not drawn)	-2	-5
CC(C)(C1=CC(=O)c2ccccc2C1=O)C1OCC(COc2ccc(Cl)cc2)O1 (stereo not drawn)	-4	-4
CCOc1ccc(C(=O)Cn2nc(-c3cccs3)c3sc(N4CCCCC4)nc3c2=O)cc1	-1	-8
N#Cc1ccc(COC(=O)CCNS(=O)(=O)c2cccs2)c(F)c1	-3	-5

Record cards, from the list above:
`Cc1ccccc1S(=O)(=O)NC(=O)C1(C)CCN1C(=O)c1cccc(F)c1` (stereo not drawn) as listed: NPYLR7 agonist = 1; NPYLR7 agonist max-min = -2
`CC(C)(C1=CC(=O)c2ccccc2C1=O)C1OCC(COc2ccc(Cl)cc2)O1` (stereo not drawn) as listed: NPYLR7 agonist = -4; NPYLR7 agonist max-min = -4

Remaining list, next part:
SMILES	NPYLR7 agonist	NPYLR7 agonist max-min
CN1C(=C2C(=O)CC(C)(C)CC2=O)Sc2ccccc21	1	5
COc1ccc(CCN2C(=O)c3ccccc3NC2c2ccc(OCC(N)=O)cc2)cc1 (stereo not drawn)	7	1
O=C(Nc1ccon1)c1ccc(=O)n(Cc2ccccc2Cl)c1	16	8
COc1ccc(C2(C(=O)NCCN3Cc4ccc(OC)cc4OC(C)C3)CCCC2)cc1 (stereo not drawn)	3	-3
OCCOCCNCc1cccc2ccccc12	-11	-15
CCCn1c(C2CC(=O)N(c3cccc(OC)c3)C2)nc2ccccc21 (stereo not drawn)	0	-4
CCCCCCc1ccc(C(=O)N(CC(=O)N2CCc3sccc3C2c2ccc(OC)cc2)C2CC2)cc1 (stereo not drawn)	0	17
Cc1ccccc1CN1CCN(c2cccc(C(F)(F)F)c2)C(=O)C1C (stereo not drawn)	0	0
Cc1cccc2oc(=O)n(C3CCN(C(=O)c4cccc(C#N)c4)CC3)c12	3	2
CCCCc1ncc(-c2nccn2CCC2CCCN2C)[nH]1 (stereo not drawn)	10	4
COCCN1CCc2ccccc2NCCC1=O	9	18
CN1CC2(CCCN(C(=O)c3cnn4ccccc34)C2)OC1=O (stereo not drawn)	10	8
CC(=O)N1CCC(N(C)CCc2scnc2C)CC1	0	0
COc1cccc(-c2cc(COC(=O)c3cc4ccccc4oc3=O)no2)c1	0	-2
CCN1CCN(C(=O)c2ccc(N3CCC(NCc4cc5ccccc5[nH]4)CC3)cc2)CC1	18	6

Of the compounds above, these contain an aryl thioether with sulfur outside any ring.
SMILES	NPYLR7 agonist	NPYLR7 agonist max-min
CC(C)C(=O)Nc1nnc(SCc2cc(F)cc(F)c2)s1	19	10
CCC(=O)Nc1ccc(SCc2ccncc2)nn1	4	-4
Fc1ccccc1-c1nnc(SCc2nc3ccccc3o2)o1	1	1
N#Cc1c(SCC(=O)C23CC4CC(CC(C4)C2)C3)sc2c(=O)[nH]c(=O)[nH]c12	1	-6

Later entries.
SMILES	NPYLR7 agonist	NPYLR7 agonist max-min
CCCCN(C)C(=O)CCCn1nc(CC)n2c(cc3occc32)c1=O	5	6
COc1ccc(OCCNS(=O)(=O)c2ccccc2Br)cc1	0	4
Cc1cc(C(C)(C)C)c([N+](=O)[O-])c2c1CC2(C)C	12	10
O=c1c2cc3c(=O)n(Cc4cccnc4)ccc3nc2ccn1CCO	2	1
O=C(CNc1ccc(Br)cc1)c1ccc(O)cc1	3	9
CC(C)NC(=O)CCCn1ncn2c(cc3occc32)c1=O	2	0
CC(=O)N1CCN(C(=O)c2c(C)c3c(n2Cc2cccc(F)c2)CCCC3)CC1	17	13
CCc1nc2c(OCC(=O)c3ccc(Cl)cc3Cl)cccn2c1N(C=O)Cc1ccc(OC)cc1	7	3
COC1CCN(C(=O)C(C)CS(=O)(=O)c2ccc(F)cc2)CC1 (stereo not drawn)	2	-1
CN1CCN(Cc2nc3c(c(=O)n(C)c(=O)n3C)n2CC(N)=O)CC1	18	14
Brc1ccc(C2=NN(c3nc(-c4ccccc4)c4cc(Br)ccc4n3)C(c3ccc(Br)cc3)C2)cc1 (stereo not drawn)	1	3
Cc1ccc(-c2ccc(=O)n(CCCC(=O)Nc3ccc(C(N)=O)cc3)n2)cc1	-9	-13
COc1ccc(-n2nc(-c3ccccc3)cc2NC(=O)c2cccc(C)c2)cc1	6	-1
O=C(c1ccc([N+](=O)[O-])s1)N(Cc1ccccn1)c1nc2ccccc2s1	-3	-9
CCOCCCNC(=O)c1sc2nc(-c3cccc([N+](=O)[O-])c3)cn2c1C	-4	-6

Gathered by group: the entries above with bromine.
SMILES	NPYLR7 agonist	NPYLR7 agonist max-min
CCCN(CCC)Cc1nc2ncccn2c1Br	3	-2
COc1ccc(OCCNS(=O)(=O)c2ccccc2Br)cc1	0	4
O=C(CNc1ccc(Br)cc1)c1ccc(O)cc1	3	9
Brc1ccc(C2=NN(c3nc(-c4ccccc4)c4cc(Br)ccc4n3)C(c3ccc(Br)cc3)C2)cc1 (stereo not drawn)	1	3

The list goes on.
SMILES	NPYLR7 agonist	NPYLR7 agonist max-min
CCCn1c(=O)c2c(nc3n2CC(C)CN3c2ccc(C)cc2)n(C)c1=O (stereo not drawn)	0	3
Cn1c(Cl)c(C=O)c2cc(C=O)ccc21	-2	-8
CN(C)CCCNC(=O)C12CC3CC(CC(C3)C1)C2	-6	-2
CCOC(=O)N1CCN(C(=O)CC(c2ccccc2OC)c2c[nH]c3c(CC)cccc23)CC1 (stereo not drawn)	3	16
COc1ccc(C2CC(=O)NCCN2Cc2ccc(N3CCN(C)CC3)cc2)cc1 (stereo not drawn)	11	3
Cc1nn(C)c(C)c1C=CC(=O)N1CCN(S(=O)(=O)c2ccccc2F)CC1	-1	2
N#C/C=C(\c1ccccc1)N1CCC(C(=O)Nc2ccc(S(N)(=O)=O)cc2)CC1	5	4
O=S1(=O)CCN2C(c3cc(F)ccc3F)=CSC2=N1	2	0
CCc1[nH]n(-c2ccc(Cl)c(Cl)c2)c(=O)c1C1=C([n+]2cccc(C)c2)C(=O)N(CC(C)C)C1=O	13	15
Cc1cccc(Cc2cnc(NC(=O)c3ccc[nH]c3=O)s2)c1	0	-1
CN(C)c1ccc(C(CNS(=O)(=O)CCc2ccccc2)N2CCCC2)cc1 (stereo not drawn)	2	1
O=c1c2c3c(sc2nc2ccc(NCc4ccco4)nn12)CCCC3	-2	-2
Brc1ccc(N2N=CCC2c2ccccc2)cc1 (stereo not drawn)	-5	-5
CC(CC(=O)c1ccccc1F)C(=O)NCc1cnc(N(C)C)n1C (stereo not drawn)	-3	12
O=C(Cn1nc2c(c1NC(=O)Cc1cccs1)CSC2)NCc1ccco1	-4	3
O=C(CC1COCCN1)N(CCc1c[nH]c2ccccc12)C1CCCCC1 (stereo not drawn)	-3	3
C=C(C)Cn1c(SCC(=O)NC2CCCC2)nc2sc3c(c2c1=O)CCC3	-2	-8
Cn1c(O)c(N=NC(=O)c2ccc(O)cc2)c2cc(Br)ccc21	-4	-7
Cc1ccc(S(=O)(=O)Nc2ccc(Nc3nccn4c(-c5cccc(OC(F)(F)F)c5)cnc34)cc2)cc1	3	-5
O=C(CSc1ccccc1)NCC1CCN(c2nc(Cc3ccc(F)cc3)ns2)CC1	2	5
CN(Cc1ccccc1)c1nc(N)c([N+](=O)[O-])c(NCc2ccco2)n1	-2	-2
CC(C)NS(=O)(=O)c1cc(C(=O)O)cc(-c2ccc(N(C)C)nc2)c1	0	-1
Cc1ccc(N(CCCCN2C(=O)c3ccccc3C2=O)C(=O)c2cccs2)cc1	6	4
CC(=O)N1C(=O)C2(OC(c3ccncc3)=NN2C(C)=O)c2ccccc21 (stereo not drawn)	-4	-7
CCOC(=O)C1CCCN(C(=O)c2cc(-c3ccc(OC)cc3)n(-c3ccc(F)cc3F)c2C)C1 (stereo not drawn)	9	14
CCOC(=O)C(C)(C)Sc1nnc(N2CCN(c3ccccc3)CC2)s1	-2	6
Oc1ccc(Cl)c2cccnc12	7	2
CCCCCCc1ccc(C(=O)N2CCC3(CC2)SCCN3C(=O)c2ccccc2)cc1	0	12
O=S1(=O)N=CNc2ccc(S(=O)(=O)Nc3ccccc3Br)cc21	7	14
CCOc1cc(C(=O)NCC(F)(F)F)ccc1OCc1cccnc1	4	3

Continued; it opens with the two that closed the last part.
SMILES	NPYLR7 agonist	NPYLR7 agonist max-min
O=S1(=O)N=CNc2ccc(S(=O)(=O)Nc3ccccc3Br)cc21	7	14
CCOc1cc(C(=O)NCC(F)(F)F)ccc1OCc1cccnc1	4	3
CC(c1cccc(-c2ncnc3sccc23)c1)N1CCCC1 (stereo not drawn)	-2	-4
O=C(c1c(F)cccc1Cl)N1CCN(C(c2ccccc2)c2ccc(Cl)cc2)CC1 (stereo not drawn)	-10	-14
COc1cccc(COC2CCCN(C(=O)c3ccc(C(F)(F)F)cc3)C2)c1 (stereo not drawn)	-6	1
NC(=O)CN1CC=C(CN2CCN(C(=O)c3cccs3)CC2)CC1	6	3
O=c1oc2ccc([N+](=O)[O-])cc2cc1-c1nnc(Nc2ccccc2F)s1	-4	-2
CSc1cccc(CN(C)C(=O)c2cn(Cc3ccc(F)cc3)nn2)c1	5	5
CC(=O)c1ccc(Nc2ncnc3c2nnn3C)cc1	11	2
CCC(CC)C(=O)N(Cc1cc(NC(=O)c2ccco2)ccc1N(C)C)C1CC1	-5	0
CCCc1nn(-c2ccc(C)cc2)c(CC)c1C(=O)O	8	17
O=C(Nc1nccs1)c1ccc2c(c1)C(=O)N(CC1CCCO1)C2=O (stereo not drawn)	-8	-7
CCOC(=O)c1nc2cc(C)c(C)cc2nc1N1CCN(S(=O)(=O)c2cc(C)ccc2C)CC1	8	0
CCOc1ccc(-c2ccnc(N3CCN(C(=O)C(F)(F)C(F)(F)C(F)(F)F)CC3)n2)cc1	1	7

Compound activity as filed in PubChem.
